High-throughput results as filed in PubChem.
CapD inh: blocks the Bacillus anthracis CapD enzyme; z-score (concentration not given with the values); AID 492967; 140,000 compounds, 0.23% hits; purified CapD enzyme, fluorescence intensity read-out; hits give low values; some hits fall short of the stated cut;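 active = z-score under -4 in either of two replicates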;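 note: stock transfer was 100 nL into about 40 µL; score is relative to mean and spread of the plate; one replicate is shown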
AID504770: E. coli YBA685 growth inhibition, screen for V. cholerae RctB inhibitors | 130,000 compounds, 0.27% hits | E. coli YBA685 rctB-dependent plasmid, OD600 growth, 3 h; hits give low values | z-score (test concentration not listed) | AID 504770;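 active = z-score under -2 on both plates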;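 note: wells of about 30 µL received 100 nL stock; score is relative to mean and SD of the test wells; the first replicate is given; strong numbers were not always called active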
* = called active by the depositor; nt = no result given. Rows are unselected, and some 0.41% of all compounds hit somewhere here.

The line under a structure holds: AID504770	CapD inh
- COc1cccc(-c2nnc(SCC(=O)N3CC(C)OC(C)C3)n2C)c1 (stereo not drawn)
  0.1	nt
- CCC(C(=O)Nc1ccccc1OC)n1c(C(=O)OC)cc2occc21 (stereo not drawn)
  -0.45	-0.25
- C(=C\c1ccccc1)/CSc1nnc(-c2ccncc2)n1-c1ccccc1
  nt	-0.415
- CCOC(=O)C(NC(=O)c1ccccc1)(Nc1nc2ccccc2nc1C(F)(F)F)C(F)(F)F (stereo not drawn)
  nt	6.36
- NC(=O)Cn1nnnc1-c1ccccc1N
  -1.65	0.625
- CCOC(=O)NC(=O)/C(C#N)=C/Nc1sc(C)c(C)c1C(=O)OCC
  nt	0.165
- Cc1ccc(N2C(=O)CC(N3CCc4ccccc43)C2=O)cc1Cl (stereo not drawn)
  1.85	nt
- O=C(O)Cc1ccc2c3c(cccc13)CC2
  0.1	1.35
- N#Cc1ccccc1CSc1nnc(-c2cccs2)n1Cc1ccccc1
  0.35	nt
- Cc1nc2ccccc2c(=O)n1/N=C/c1ccc(Cl)c(Cl)c1
  -0.65	-0.25

The list continues.
The line under a structure holds: AID504770	CapD inh
- COc1ccc(CN(Cc2cccs2)C(=O)Cc2cccs2)cc1OC
  -0.3	nt
- CCOC(=O)c1cnn2c1nc(N)c1ccccc12
  -0.1	83.6
- CCn1cnc2cc(NC(=O)c3ccccc3)ccc21
  -0.6	-0.2
- Cc1ccc(NC(=O)C2CCCCC2C(=O)O)cc1C (stereo not drawn)
  nt	0.59
- CCOc1c(OC)cc(C2C(C#N)=C(N)Oc3n[nH]c(-c4cccs4)c32)cc1OC (stereo not drawn)
  nt	-0.155
- CCN(C(=O)c1cccc2c1SCCC2=O)c1cc(Cl)ccc1OC
  -1.25	0.44
- Cc1cc(C(=O)CSc2nnc(-c3sc4ccccc4c3Cl)o2)c(C)n1C1CC1
  -0.4	nt
- CSc1nc2nc(N)nc(N)c2s1
  -0.2	-0.635
- NC(=O)c1oc2ccccc2c1NC(=O)CS(=O)(=O)c1ccccc1
  -1.2	nt
- CCOC(=O)c1c(NC(=O)CSc2nnc(CNC(=O)c3cccs3)n2-c2ccccc2OC)sc2c1CCC2
  nt	-0.71

Next structures follow.
The line under a structure holds: AID504770	CapD inh
- O=C(Nc1ccc(N2CCCCC2)cc1)C1CCCCC1
  0.25	-0.37
- Cc1nc2[nH]c(=O)[nH]c(=O)c2s1
  0.65	1.02
- O=C(NC(c1ccccc1)c1ccccc1)c1cccnc1
  2	-0.015
- O=C(Nc1ccccc1)c1ccccc1OCc1nnc(-c2cccs2)o1
  0.15	nt
- Cc1ccc(NC(=S)NNC(C)(C)C)cc1
  nt	0.345
- COc1cc(/C=C2/N=C(c3cccc(Br)c3)OC2=O)cc(OC)c1OC
  nt	0.25
- C[N+]1(C2CCCCC2)Cc2ccccc2C1
  -0.2	3.19
- CC(C)c1nc2ccccc2c2c1C(=O)N(NC(=O)c1ccccc1CCc1ccccc1)C2=O
  nt	0.48
- COc1ccc(CCNS(=O)(=O)c2cc(C(=O)O)ccc2Cl)cc1OC
  0.05	nt
- CCn1c(CN2CCN(c3ccccc3F)CC2)nc2c1c(=O)n(C)c(=O)n2C
  0.35	-2.15

(continued)
The line under a structure holds: AID504770	CapD inh
- Nc1ccc2c(c1)CCC2=O
  0	nt
- CC1=C(C(=O)Nc2ccccc2C)C(c2ccccc2O)NC(=S)N1 (stereo not drawn)
  1.15	nt
- COc1ccc(S(=O)(=O)N(C)CC(=O)O)cc1
  0.4	0.81
- O=C(CCc1nc2ccccc2s1)N1CCN(c2ccccn2)CC1
  -0.3	nt
- CN(Cc1ccccc1)S(=O)(=O)C1CCS(=O)(=O)C1 (stereo not drawn)
  2.35	-1.95
- O=C(Cc1csc(N2CCOCC2)n1)N/N=C/c1ccccc1C(=O)O
  0.15	nt
- CN(C)C(=O)Cn1c2[n+](c3ccccc31)CC(O)CS2 (stereo not drawn)
  0.1	nt
- Cc1cc(C(=O)OCC(=O)N2CCCC2)c2ccccc2n1
  0.15	2.75
- O=C(CNc1ccc(F)cc1F)NC(=O)NCc1ccco1
  -1.5	nt
- O=C(COc1ncnc2ccccc12)N1CCc2ccccc21
  0.2	0.18

Next results follow:
The line under a structure holds: AID504770	CapD inh
- COc1ccc(CCNc2nc(Cl)nc(N3CC4CC(C3)c3cccc(=O)n3C4)n2)cc1OC (stereo not drawn)
  -0.15	0.77
- CC1=C(C#N)c2nc(N)c(C#N)c(C)c2/C1=C\C=C\c1ccccc1
  1.8	nt
- CSc1ccc(Oc2cccc(F)c2C#N)cc1
  nt	0.155
- CCC(C(=O)OC)n1cnc2c(nnn2-c2cccc(Cl)c2)c1=O (stereo not drawn)
  -0.6	-0.6
- CCOc1ccc(CCNC(=O)c2nnc(Cc3ccc(Cl)cc3)o2)cc1OCC
  1.65	-0.74
- CCc1cccc(NC(=S)N2CCC(c3ccccc3)C2)c1 (stereo not drawn)
  -0.35	-0.19
- O=C(OCC(=O)C12CC3CC(CC(C3)C1)C2)c1ccc(Br)o1
  -0.15	nt
- O=C(NC1CCN(C(=O)c2c(Cl)cccc2Cl)CC1)C1CCCCC1
  -0.8	0.2
- O=S(=O)(NCc1cccs1)c1ccc(I)cc1
  nt	0.445
- CCCCS(=O)(=O)N(O)c1ccc(Cl)cc1
  0	-0.005

More records follow.
The line under a structure holds: AID504770	CapD inh
- O=C(O)C1C2CC3CC(C2)CC1C3 (stereo not drawn)
  -0.65	nt
- CCCCN(CC)C(=O)Cn1c(=O)c2ccccc2n(CC)c1=O
  nt	5.52
- COc1ccc(N2CCN(/C(=N/S(=O)(=O)c3ccccc3)Nc3nc(C)cc(C)n3)CC2)cc1
  -0.65	0.085
- COc1ccc(-c2csc(-c3c(C)noc3N(C(C)=O)C(C)=O)n2)cc1
  0.85	8.6
- CC1=C(C(=O)OC(C)C)C(c2ccccc2)NC(=O)N1C (stereo not drawn)
  0.35	0.255
- CCCn1cnc2c1c(=O)n(C)c(=O)n2C
  -0.45	nt
- CCCn1c(SCC(=O)N2c3ccccc3Sc3ccccc32)nc2ccccc21
  -0.55	24.5
- COc1cc(NC(=O)CN2CCN(C3c4ccccc4-c4ccccc43)CC2)cc(OC)c1
  -0.4	0.335
- Cc1cc(C)cc(OCc2nc3cc(S(=O)(=O)N4CCOCC4)ccc3n2CC2CCCO2)c1 (stereo not drawn)
  -0.2	nt
- O=C(O)CCCC(=O)N1N=C(c2ccc(Br)cc2)CC1c1cccc([N+](=O)[O-])c1 (stereo not drawn)
  nt	0.28

Four entries from above, reformatted:
COc1ccc(N2CCN(/C(=N/S(=O)(=O)c3ccccc3)Nc3nc(C)cc(C)n3)CC2)cc1
- AID504770 = -0.65
- CapD inh = 0.085

COc1ccc(-c2csc(-c3c(C)noc3N(C(C)=O)C(C)=O)n2)cc1
- AID504770 = 0.85
- CapD inh = 8.6

CC1=C(C(=O)OC(C)C)C(c2ccccc2)NC(=O)N1C (stereo not drawn)
- AID504770 = 0.35
- CapD inh = 0.255

CCCn1cnc2c1c(=O)n(C)c(=O)n2C
- AID504770 = -0.45
- CapD inh = nt

(cont.)
The line under a structure holds: AID504770	CapD inh
- COc1ccc(C(NC(=O)COc2ccccc2)c2cc(Cl)c3cccnc3c2O)cc1 (stereo not drawn)
  nt	-0.63
- c1cc(CNc2ccc3c(c2)CCC3)ccn1
  -0.85	0.595
- CC(=O)Nc1cccc(/C(C)=N/NC(=S)NCC2CCCO2)c1 (stereo not drawn)
  1.85	nt
- COc1cc(/C=N/NS(=O)(=O)c2cc(C)ccc2C)cc(OC)c1O
  0.45	nt
- COc1ccc(CN2CNc3c(c(C)nn3-c3ccccc3)C2)cc1
  -0.6	14.2
- O=C(Cc1ccccc1)OCC1CCCN2CCCCC12 (stereo not drawn)
  1.35	0.275
- Cc1c(C(=O)O)oc2ccc(S(=O)(=O)NC3CCCCC3C)cc12 (stereo not drawn)
  -1.85	1.61
- COCCn1cc(C(=O)NCCCN2CCC(C)CC2)c2c3ccccc3n(C)c2c1=O
  -1.05	70.2
- Cc1cc(C)nc(Nc2n[nH]c(C)n2)n1
  -0.65	-0.015
- CC(=O)Nc1ccc(NC(=O)c2ccc(-c3cccc(C(F)(F)F)c3)o2)cc1
  -0.2	nt

Remaining list, next part
The line under a structure holds: AID504770	CapD inh
- COc1ccc2nc(N3CCC(C(=O)N4CCN(c5ccccn5)CC4)CC3)sc2c1
  0.45	0.955
- NC(=O)c1ccccc1NC(=O)Nc1ccccc1
  0.05	3.7
- O=C(Cn1c2ccccc2c2cn[nH]c(=O)c21)N1CCC2(CC1)OCCO2
  1.3	7.29
- O=C(NCCc1ccccc1)c1ccc2c(c1)N(Cc1ccccc1)CCS2
  1.15	0.135
- N#CCCN(Cc1ccccc1)C(=S)Nc1ccccc1
  0	0.25
- O=C(c1cc2ccccc2o1)N(c1ccccn1)c1ccccn1
  -0.1	-0.695
- N#CC1(Nc2ccccc2Cl)C(=O)Nc2ccccc21 (stereo not drawn)
  -0.65	nt
- COc1ccc(N2C(=O)CSC(c3ccccc3)C2=O)cc1 (stereo not drawn)
  -0.5	-0.29
- NC(=O)c1ccc2[nH]c3c(c2c1)CCCC3
  0.35	2.58
- Cc1cc2cc3c(cc2nc1SCC(=O)N1CCCC1)OCCO3
  0.05	nt

Additional records.
The line under a structure holds: AID504770	CapD inh
- CC(=O)N=C1SC2CS(=O)(=O)CC2N1Cc1ccccc1Cl (stereo not drawn)
  -2.2	0.135
- CC(C)CN(Cc1c(O)ccc2c3c(c(=O)oc12)CCC3)CC(C)C
  nt	44.1
- CNC(=O)c1sc(SC)c2c1CCC=C2
  nt	2.58
- Cn1c(=O)c2c(nc(Sc3ncnn3CC(=O)NC(C)(C)C)n2C)n(C)c1=O
  nt	-0.145
- CC1=NN(c2ccccc2)C(=O)/C1=C\c1ccc(N(C)C)cc1
  1.75	-0.07
- C[n+]1c(COc2ccccc2O)sc2ccccc21
  -0.75	-0.5
- O=C(O)c1ccccc1C(=O)Nc1c(-c2ccccc2)nc2ccccn12
  nt	0.54
- CSc1ncc(S(=O)(=O)Cc2cccs2)c(N)n1
  -0.15	-0.39
- O=C(Nc1ccc(C(F)(F)F)cc1)C1CCC(=O)N1Cc1cccs1 (stereo not drawn)
  nt	-0.645
- CCn1c(CCC(=O)Nc2cc(OC)cc(OC)c2)nc2cc(S(=O)(=O)N(C)C)ccc21
  -0.35	nt

(further entries)
The line under a structure holds: AID504770	CapD inh
- O=C(OCC1CCOC1)N1CCC(O)(c2ccc(Cl)cc2)CC1 (stereo not drawn)
  nt	0.515
- COc1ccc(-n2cc(C(=O)Nc3cc(OC)cc(OC)c3)nn2)cc1
  0.55	0.475
- Fc1ccc(CSc2ncc(-c3cccc(C(F)(F)F)c3)cn2)cc1
  nt	-0.53
- Cc1ccc(Nc2nc(C(=O)N3CCC(C)CC3)cs2)cc1
  -0.6	nt
- O=C(Nc1ccccn1)C1c2ccccc2Oc2ccccc21
  -1.35	0.575
- CC1(C)CC(=O)C(C(=O)/C=C/c2ccco2)C(=O)C1
  -0.6	nt
- CC(N=C1NS(=O)(=O)c2ccccc21)C(=O)O (stereo not drawn)
  -0.85	nt
- O=C1NC(=O)N(c2ccccc2F)C(=O)/C1=C/c1cn(CC(=O)N2CCCC2)c2ccccc12
  -0.85	-0.75
- OC(CNCc1ccccc1)c1ccccc1 (stereo not drawn)
  nt	-0.35
- CN(Cc1ccccc1)C(=O)COc1ccc(Br)cc1
  -0.4	-0.855

Next section:
The line under a structure holds: AID504770	CapD inh
- CC(=O)Oc1ccc2c(c1)cc(C)n2C
  0.1	1.11
- COc1cc(/C=C2/NC(=S)NC2=O)ccc1OCc1ccc([N+](=O)[O-])cc1
  nt	-0.05
- N#CCCn1c(=O)[nH]c(=O)n(CCC#N)c1=O
  0.05	nt
- C=CCN(CC=C)C(=O)CSc1nc(-c2ccccc2)cn1N
  0.85	nt
- CCCCOc1ccc(C2C=C(Nc3ccc(CC)cc3)C(=O)N2c2ccc(CC)cc2)cc1 (stereo not drawn)
  nt	-0.36
- CS(=O)(=O)N(CC(=O)NC12CC3CC(CC(C3)C1)C2)c1ccc2c(c1)OCO2
  -0.6	nt
- CC(=O)OC[C@H]1O[C@@H](n2ccc(=O)[nH]c2=S)C(OC(C)=O)C1OC(C)=O (stereo partly drawn)
  -0.05	-0.1
- COc1ccc2c(c1)CC/C(=C\c1cccn1C)C2=O
  -1.1	-1.15
- COc1ccc(-c2nonc2NC(=O)C(C)C)cc1
  -0.2	0.66
- Cc1c(NC(=O)CSc2nc3ccc(NC(=O)c4ccccc4Cl)cc3s2)c(=O)n(-c2ccccc2)n1C
  nt	-0.635

Remaining list, next part.
The line under a structure holds: AID504770	CapD inh
- CN(C(=O)c1ccc2c(c1)C(=O)N(CCC1=CCCCC1)C2=O)C1CCCCC1
  -0.5	6.13
- COC(=O)CCc1ccc(/C=C/C(=O)O)o1
  1.2	nt
- COC(=O)c1cc(-c2ccc(OC)c(OC)c2)nc2ccccc12
  -0.25	nt
- Cc1cccc(S(=O)(=O)NCCc2ccccc2Cl)c1
  nt	0.7
- N/C(=N\OC(=O)c1sc2ccccc2c1Cl)c1c(Cl)cccc1Cl
  nt	0.38
- N#CCCN(CCC#N)c1ccc(/C=N/NC(=O)COc2ccccc2Cl)cc1
  nt	36.5
- CC12CCC(C(=O)Nc3ccc(Cl)cc3)(OC1=O)C2(C)C (stereo not drawn)
  nt	-0.155
- Cc1ccc2cccc(OS(=O)(=O)c3ccc(C(C)C)cc3)c2n1
  nt	0.1
- Nc1nc(N)nc(SCC(=O)N2N=C3/C(=C/c4ccccc4)CCCC3C2c2ccccc2)n1 (stereo not drawn)
  -0.6	nt
- CCN1CCN(CCCNC(=O)CCC(=O)Nc2nc(-c3cc4cccc(OC)c4oc3=O)cs2)CC1
  nt	4.72
- CN(C)S(=O)(=O)c1ccc2oc(SCC(=O)Nc3ccccc3F)nc2c1
  -0.4	nt

By substructure, the compounds so far containing a tert-butyl group.
The line under a structure holds: AID504770	CapD inh
- Cc1ccc(NC(=S)NNC(C)(C)C)cc1
  nt	0.345
- Cn1c(=O)c2c(nc(Sc3ncnn3CC(=O)NC(C)(C)C)n2C)n(C)c1=O
  nt	-0.145
